# Screening data deposited in PubChem BioAssay by National Center for Advancing Translational Sciences (NCATS).
# ClpP mod: qHTS Assay for Activators of ClpP. AID 651965, 2013. 340,000 tested, 1.9% active. Potency, µM (doses to about 57.5 µM), inactives show at the top dose activity change, negative = active. ATP-dependent Clp protease proteolytic subunit (Bacillus subtilis (strain 168)), P80244. purified B. subtilis ClpP, FRET peptide cleavage, 20 min; active = well fitted falling curve with a large enough effect; inconclusive = small, poorly fitted or top-dose-only effect; inactive = no such curve, though single readings can be large or run the other way; note: potency is the fitted concentration of half-maximal effect; the source files actives as falling curves though it sought activators and does not explain the sign; nearly all actives have a fitted effect of over 65% in size; many hits overshoot -100%
# Target sequence (P80244 whole entry, looked up): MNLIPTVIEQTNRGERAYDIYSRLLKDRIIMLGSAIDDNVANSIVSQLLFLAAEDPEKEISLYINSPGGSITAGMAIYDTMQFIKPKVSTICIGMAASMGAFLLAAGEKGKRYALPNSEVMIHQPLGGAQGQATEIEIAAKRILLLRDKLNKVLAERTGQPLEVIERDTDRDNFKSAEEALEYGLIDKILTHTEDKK
#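 FRET quenching reversal measured ClpP activation: 10 microg/mL B. subtilis ClpP at pH 8 with the FRET-FV decapeptide, read at 430 nm after 320 nm excitation. The 20-min minus 0-min signal was scaled between DMSO/no-enzyme wells and ADEP (5.8 microM final).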
# gsp antagonist: antagonizes gsp, the McCune-Albright syndrome mutation. gsp-mutant cells, cAMP HTRF, 30 min; control for the full effect not named in the record. Potency, µM (highest dose often 76.9 µM), without a hit: top-dose activity change, negative = inhibition, hits mostly inhibitors. 340,000 tested, 0.4% active. AID 624288; active = falling curve of any shape with a large fitted effect; inconclusive = falling curve, mostly with a smaller effect; inactive = flat or rising curve; cell line not stated here;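 note: intracellular cAMP measured with PDE inhibitor Ro 20-1724 present during compound exposure; potency is the fitted concentration of half-maximal effect; % is set by controls: 0 for no effect and ±100 for the full control effect; nearly all actives have a fitted effect of over 65% in size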
#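 Cells, 2000/well, grown 16–24 h in DMEM 10% FBS with 0.5 mg/ml G418, then compounds plus […] (300 uM addition stock), 30 min at 37C. cAMP read by HTRF (cAMP-d2 and anti-cAMP antibody-K in lysis buffer) after 30 min RT.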
# D2 PAM: human D2 receptor positive allosteric modulation. P14416. DiscoveRx D2 beta-arrestin cells, luminescence, 90 min; 100% = 57 uM dopamine signal. 360,000 tested, 0.23% active. potentiation, % (test concentration not listed). AID 624464; active = potentiation of 50% or more; inconclusive = 30% to 50%; inactive = 30% or less;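 note: compound concentration not given in the record; tested on top of an EC20 dose of dopamine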
#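 PathHunter D2 cells, attached overnight at 37 deg C, received compound in DMSO plus dopamine at EC20 (50 nM final) for 90 min at 37 deg C. Beta-arrestin recruitment was read as luminescence after 1 h with detection reagent at ambient temperature.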
# Menin MLL FP FL: displaces fluorescein MLL peptide from human menin; 290,000 tested, under 10 active; Fluorescence polarization, fluorescein-MLL peptide displacement from menin; FP activity change, % at 61.4 µM; inconclusive = falling polarisation curve, or a change in total fluorescence; inactive = total fluorescence flat and polarisation flat or rising; no compound was filed as active; the % refers to the polarisation; negative = inhibition;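 note: % of control where 0% means no effect; inhibitors lower the polarisation; unlabelled MLL peptide was the positive control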
# TRPV1 potentiator: potentiators of human vanilloid receptor 1 (TRPV1); Q8NER1; TRPV1-expressing cells, Fluo-8 calcium influx, capsaicin EC20 potentiation; host cell line not named in the record; control for the full effect not named in the record; potentiation, % at 8.33 µM; 320,000 tested, 0.02% active; AID 540277; active means potentiation above 80%; inconclusive means 30% to 80%; inactive means below 30%; note: 0% is about no effect
# Target sequence (Q8NER1 whole entry, looked up): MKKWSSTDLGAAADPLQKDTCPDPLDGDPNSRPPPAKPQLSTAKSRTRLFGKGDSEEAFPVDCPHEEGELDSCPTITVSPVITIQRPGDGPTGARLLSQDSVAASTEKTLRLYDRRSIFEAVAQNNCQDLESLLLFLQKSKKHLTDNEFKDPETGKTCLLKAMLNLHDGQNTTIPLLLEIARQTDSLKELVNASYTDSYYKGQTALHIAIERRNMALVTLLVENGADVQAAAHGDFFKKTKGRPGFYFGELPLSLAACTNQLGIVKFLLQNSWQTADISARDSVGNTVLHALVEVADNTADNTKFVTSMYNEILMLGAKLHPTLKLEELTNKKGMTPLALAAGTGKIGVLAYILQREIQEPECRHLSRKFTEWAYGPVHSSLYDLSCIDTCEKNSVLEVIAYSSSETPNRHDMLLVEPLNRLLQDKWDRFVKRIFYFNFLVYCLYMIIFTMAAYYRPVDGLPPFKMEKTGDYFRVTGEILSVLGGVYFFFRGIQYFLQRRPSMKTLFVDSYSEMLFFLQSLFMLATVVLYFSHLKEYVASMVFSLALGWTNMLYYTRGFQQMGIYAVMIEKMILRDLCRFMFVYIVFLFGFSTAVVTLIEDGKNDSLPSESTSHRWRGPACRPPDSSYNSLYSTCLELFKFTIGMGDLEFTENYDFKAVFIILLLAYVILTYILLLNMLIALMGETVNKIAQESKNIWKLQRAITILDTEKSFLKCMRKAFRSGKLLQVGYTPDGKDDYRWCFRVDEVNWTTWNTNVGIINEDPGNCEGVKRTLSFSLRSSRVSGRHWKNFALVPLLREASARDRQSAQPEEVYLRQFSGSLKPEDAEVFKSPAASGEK
#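 Fluo-8 calcium influx in TRPV1-expressing cells, kinetic read (ex 480/em 520 nm). Compound added and read 3 min for agonist activity, followed by capsaicin at EC20 final and 2 min further read for enhancement.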
# gsp agonist: gsp mutant agonism | gsp mutant cells, cAMP HTRF, 30 min; control for the full effect not named in the record | Potency, µM (titrated, usually from 76.9 µM), for inactives: at the highest dose activation (cAMP increase), usual class: activators | 340,000 tested, 0.13% active | AID 624287; active = well fitted activation curve with a large enough effect; inconclusive = small, poorly fitted or top-dose-only effect, or another doubt; inactive = no such curve, though single readings can be large or run the other way; cell line not stated here;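 note: phosphodiesterase inhibitor Ro 20-1724 added with compounds to block cAMP breakdown; potency is the fitted concentration of half-maximal effect; nearly all actives have a fitted effect of over 60% in size; about a fifth of the inactives were tested at one dose only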
#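 Cells stably selected in G418 were plated at 2000/well, grown 16-24 hr, then given compounds in DMSO with the PDE inhibitor […] (300 uM solution added) for 30 min at 37C; cAMP was read by HTRF.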
# Sfp PPTase inh: blocks B. subtilis Sfp PPTase activity; Q9F4F7; Biochemical Sfp PPTase activity, qHTS; Potency, µM, for inactives: max response, negative = inhibition, actives largely listed as inhibitors; 310,000 tested, 3.5% active; AID 1490; active = well fitted inhibition curve with a large enough effect; inconclusive = small, poorly fitted or top-dose-only effect, or another doubt; inactive = no such curve, though single readings can be large or run the other way;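 note: the enzyme is Sfp with the accession as filed and its product quenches rhodamine fluorescence; potency is the fitted concentration of half-maximal effect; 0% = enzyme reaction without inhibitor and -100% = no enzyme wells; top concentration of the series not given in the record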
#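 Reaction rates are the 30-min fluorescence difference (ex 525, em 598 nm) in wells containing 15 nM Sfp, 5 uM rhodamine-CoA and 12.5 uM BHQ-2-YbbR at pH 7.6 with 10 mM MgCl2.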
# * = called active by the depositor; ? = inconclusive; . = no result given; & = joins results of further samples; [ ] = remark or other dose. An unsorted share of the library (roughly 5.1% active in at least one column).
SMILES,ClpP mod,gsp antagonist,D2 PAM,Menin MLL FP FL,TRPV1 potentiator,gsp agonist,Sfp PPTase inh
COc1ccccc1CNC(=O)C12CC3CC(CC(C3)C1)C2,1.0%,-4%,-8,2.3,30,-3%[15.4 µM],11%
COc1cc(S(=O)(=O)N2CCN(C(=O)c3ccccc3)CC2)c(OC)cc1Br,-0.9%,-4%,-6,2.5,2,11%,13%
CCOC(=O)N1CCN(CC(O)COc2ccc(-c3ccccc3)cc2)CC1 (stereo not given),0.2%,-7%,-1,-3.8,-2,-44%,-9%
O=c1[nH]cnc(CN2CCCCC2)c1O,1.6%,3%,-15,.,.,-16%,.
COc1ccccc1CNS(=O)(=O)c1ccc2c(c1)CC(C)N2C(=O)C1CC1 (stereo not given),-1.7%,-14%,-6,-3.0,-11,-8%,4%
Cc1cc(C)nc(NC(=O)C(C)C)n1,0.8%,7%,9,-2.3,4,18%,7%
COc1ccc2ccccc2c1/C=N\n1c(C)cc(C)c(C(N)=O)c1=O,-9.9%,0%,-2,0.3,0,-1%,8%
COc1cc(C(C)=O)ccc1OCCCN1CCC(Cc2ccccc2)CC1,.,17%,-11,0.2,6,-27%,-10%
O=S(=O)(NCCN1CCOCC1)c1ccc2ccccc2c1,-3.4%,10%,-6,.,.,-26%,.
Cc1ccc(C)c(NC(=O)C2CCCN2S(=O)(=O)c2ccc3c(c2)n(C)c(=O)c(=O)n3C)c1 (stereo not given),-29%&-16%,0%,-7,0.0,0,-5%,0%

# 4 of the compounds above, with tabs.
structure	ClpP mod	gsp antagonist	D2 PAM	Menin MLL FP FL	TRPV1 potentiator	gsp agonist	Sfp PPTase inh
O=c1[nH]cnc(CN2CCCCC2)c1O	1.6%	3%	-15	.	.	-16%	.
COc1ccccc1CNS(=O)(=O)c1ccc2c(c1)CC(C)N2C(=O)C1CC1 (stereo not given)	-1.7%	-14%	-6	-3.0	-11	-8%	4%
Cc1cc(C)nc(NC(=O)C(C)C)n1	0.8%	7%	9	-2.3	4	18%	7%
COc1ccc2ccccc2c1/C=N\n1c(C)cc(C)c(C(N)=O)c1=O	-9.9%	0%	-2	0.3	0	-1%	8%

# Remaining list, next part.
SMILES,ClpP mod,gsp antagonist,D2 PAM,Menin MLL FP FL,TRPV1 potentiator,gsp agonist,Sfp PPTase inh
O=[N+]([O-])c1cc(/C=N/N2CCN(c3ccccc3)CC2)ccc1Cl,0.5%,10%,-8,7.7,1,7%,-15%
CCOC(=O)N/N=C(\CCC(=O)O)c1cccs1,0.6%,7%,2,-0.1,6,16%,9%
Cn1c(Cc2ccc3c(c2)OCO3)nnc1SCC(=O)NC1CCCC1,.,.,.,-2.1,-4,.,16%
Cc1snc(SCC(=O)N/N=C(\N)COc2cccc(C(F)(F)F)c2)c1C#N,-0.9%,6%,6,-1.6,-7,-15%,-19%
O=C(Nc1ccc(Cl)c(S(=O)(=O)N2CCOCC2)c1)c1ccc2c(c1)OCO2,1.2%,?,-11,.,.,-1%[15.4 µM],.
CCc1noc(C)c1C(=O)NNC(=O)COc1ccc(Br)cc1,-0.9%,4%,-6,.,0,-1%[15.4 µM],7%
Cc1ccc(N2C(=O)SC(N(CC(=O)O)c3ccc(C)cc3)C2=O)cc1 (stereo not given),1.8%,2%,0,-1.4,-19,-27%,?
Cc1ccc(CCNC(=O)c2cc(S(=O)(=O)N3CCCCC3)c[nH]2)cc1,-1.6%,-4%,-6,0.5,?,7%,-10%
CCC(CO)n1c(=S)[nH]c2cc(OC)c(OC)cc2c1=O (stereo not given),-1.3%,9%,-3,-0.6,2,-1%,-30%
COCCNC(=O)C1CCC(CNS(=O)(=O)c2cccc3nsnc23)CC1 (stereo not given),-2.2%,6%,-9,.,-8,3%,7%
COC(=O)C1=CN(c2cccc(C(F)(F)F)c2)C=C(C(=O)OC)C1c1ccc(O)c(OC)c1,-8.8%,-7%,-1,-1.7,-6,-21%,-2%
CCc1ccc(NC(=O)CN2CCCN(S(=O)(=O)c3ccc(F)cc3)CC2)cc1,-1.5%,-32%,-9,5.2,7,14%[15.4 µM],4%
Cc1ccc(N2CC(C(=O)OCC(=O)Nc3cc(C)on3)CC2=O)c(C)c1 (stereo not given),0.8%,-3%,-13,-12,-2,14%,16%
COc1ccc(C2CC(=O)c3cnc(Nc4cc(C)cc(C)c4)nc3C2)cc1 (stereo not given),?,-6%,0,1.9,-3,-20%,3%
O=C1c2ccccc2C(=O)N1c1ncc(Cc2ccc(Cl)cc2)s1,-3.2%,-9%,10,0.7,5,0%,-13%
Cc1ccc(NC(=O)C2CCCN(S(=O)(=O)c3c(C)noc3C)C2)c(C)c1 (stereo not given),3.1%,5%,-3,-2.6,?,0%,-12%
Cc1ccc2cc(CCNC(=O)C3CCCC3)c(=O)[nH]c2c1,?,3%,-6,-0.8,12,-20%,9%
COc1ccc(NC(=O)CNC(=O)Cn2cnc3sc4c(c3c2=O)CCCC4)cc1OC,-1.0%,6%,-8,-0.1,8,?,8%
COc1ccc(CNC(=O)c2cc3c(=O)n4cccc(C)c4nc3n(CC3CCCO3)c2=N)cc1 (stereo not given),-30%,5%,-7,.,-4,2.2µM*,5%
Cc1ccc(CNC(=O)c2ccc(N3CCC4(CC3)CC(c3ccccc3)=NO4)c(NC(=O)c3cccc(C)c3)c2)cc1,-0.6%,-5%,-7,.,29,.,.
Cc1ccc(OCC(=O)OCC(=O)Nc2ccc3c(c2)OCO3)cc1C,-1.7%,-5%,-3,.,.,-11%,.
Cc1ccc(S(=O)(=O)N2CC=C(C(=O)NC3CC3)CC2)cc1,1.2%,15%,0,-1.5,2,11%,11%
O=C1CCC(C(=O)NC2(C(=O)NC3CCCCC3)CCCCC2)N1 (stereo not given),-0.6%,-1%,-16,-1.8,-6,-31%,10%
O=C(Nc1ccc(N2CCOCC2)nc1)c1cccs1,-7.4%,7%,-3,-7.6,-11,-7%[15.4 µM],5%
Cc1ccc2[nH]cc(C(=O)NCc3cccs3)c(=O)c2c1,-2.4%,?,13,0.2,4,1%,8%
O=C(COc1ccc(C(=S)N2CCCC2)cc1)Nc1ccc(F)cc1,1.2%,-4%,0,1.0,-1,-48%[inhibitor],-5%
CCN(CC)S(=O)(=O)N1CCC(C(=O)NCc2ccc(C)cc2)CC1,-2.1%,4%,1,0.8,28,4%,2%
CCN(CC)CCN(C)C(=O)CCc1nnc(-c2ccc(C)s2)o1,.,6%,1,-3.5,-15,-33%[15.4 µM],12%
FC(F)(F)c1cccc(-c2cc3ccccc3nc2N2CCCC2)c1,32µM*,-5%,-1,6.7,-13,-32%[inhibitor],-22%
Cc1nc2nc(C)c(CCC(=O)NCc3ccc4c(c3)OCO4)c(C)n2n1,-1.6%,-6%,-8,3.1,1,14%,2%
O=C(NCCc1ccc(F)cc1)C(=O)Nc1cc2c3c(c1)CC(=O)N3CCC2,-1.1%,-13%,-30,.,-4,-33%[inhibitor],.
COc1ccc(Cc2nc3ccc(C(=O)NCc4cc(C)no4)cc3o2)cc1OC,-1.6%,-23%,25,0.9,4,-24%,10%
Cc1ccc(C(=O)Nc2nnc(S(=O)(=O)N3CCOCC3)s2)cc1,-11%&-5.2%,-15%,-6,-0.6,14,1%,19%
O=C(COc1ncnc2ccccc12)N1CCOCC1,-1.4%,-8%,-6,-3.9,-20,-4%,-7%
Cc1cc(NC(=O)CCS(=O)(=O)c2ccc3c(c2)NC(=O)C(C)S3)ccc1Br (stereo not given),-3.1%,?,-1,7.7,5,-16%,5%
COc1cc2c(cc1OC)CN(Cc1cc(=O)oc3cc(C)c(C)cc13)CC2,-0.4%,19%,-13,7.7,-16,19%,-9%
COc1ccc([N+](=O)[O-])cc1NS(=O)(=O)c1ccccc1,-19%,-3%,-12,-2.4,30,-12%,9%
O=C(CSc1nnc2ccc(-c3ccco3)nn12)Nc1ccccc1F,-15%,9%,9,.,1,-22%,.
CCN1C(=O)[C@H]2[C@@H](c3ccc(-c4ccc(F)cc4)cc3)N3CCCC[C@@]3(C(=O)OC)[C@H]2C1=O,-6.2%,-12%,-15,.,-44,-25%,.
Cc1ccc(C)c(S(=O)(=O)N2CCN(C(=O)Cn3c(=O)cnc4ccccc43)CC2)c1,0.1%,0%,7,.,27,-8%[15.4 µM],.

# Entries of single compounds as entered above:
# COc1cc2c(cc1OC)CN(Cc1cc(=O)oc3cc(C)c(C)cc13)CC2 as listed: ClpP mod: -0.4%; gsp antagonist: 19%; D2 PAM: -13; Menin MLL FP FL: 7.7; TRPV1 potentiator: -16; gsp agonist: 19%; Sfp PPTase inh: -9%
# O=C(COc1ncnc2ccccc12)N1CCOCC1 as listed: ClpP mod: -1.4%; gsp antagonist: -8%; D2 PAM: -6; Menin MLL FP FL: -3.9; TRPV1 potentiator: -20; gsp agonist: -4%; Sfp PPTase inh: -7%

# (cont.)
SMILES,ClpP mod,gsp antagonist,D2 PAM,Menin MLL FP FL,TRPV1 potentiator,gsp agonist,Sfp PPTase inh
CCC(Oc1ccccc1)C(=O)NCc1ccc(S(N)(=O)=O)cc1 (stereo not given),0.7%,17%,-7,-1.7,-6,6%,11%
O=c1[nH]c(Cc2ccc(Cl)cc2)nc2ccccc12,.,4%,-2,-1.7,2,-38%,5%
O=C(COC(=O)c1c2c(nc3ccccc13)CCN(Cc1ccccc1)C2)Nc1c(F)cccc1F,-2.2%,9%,-19,-6.2,2,5%[15.4 µM],-12%
CC(Sc1ccccn1)C(=O)Nc1ccc2c(c1)OCCO2 (stereo not given),-0.7%,0%,-14,.,-16,10%,.
C[n+]1ccc(/C=C/c2c[nH]c3ccccc23)cc1,0.7%,?,3,?,25,-3%,56µM*
COc1ccc(CNC(=O)C(=O)NCC2OCCN2C(=O)c2ccc(OC)cc2)cc1 (stereo not given),-6.3%,3%,-3,.,3,-12%,6%
CSc1ccccc1C(=O)NCc1ccccc1C,.,1%,-3,-1.5,18,11%,-1%
CC(CN1CCOCC1)OC(=O)c1ccccc1Cl (stereo not given),-13%,5%,-1,3.4,-14,-8%[15.4 µM],4%
